Compound activity from PubChem.
CSC inhib = cancer stem cell viability inhibitors, primary screen, luminescence; actives 1.1% (n = 300,000); inhibition, % at 7.5 µM; cancer stem cell-like cells viability;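 active means mean at 75% or more and at least half the replicates too; inconclusive means mean and replicates disagree; tested in HMLE shEcad cells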;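 further: 0% = median of negative and 100% = median of positive control wells; the first replicate is given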
HIV Env fusion = inhibitors of HIV-1 Env-driven cell-cell fusion, primary screen, HeLa-JRFL effector, CEM21 target cells, luciferase; inhibition, % at 12.3 µM; actives 1.1% (n = 360,000); AID 651610, 2012;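 active means mean replicate inhibition score of at least 50 and every replicate individually at or above 50; inconclusive means only one of the two criteria met; inactive means mean below 50 and not all replicates reaching 50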;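 further: 0% = plate neutral controls and 100% = maraviroc near 300 nM; one replicate is shown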
Rce1 inhib = yeast Rce1p protease inhibitors, primary screen, biochemical, fluorescence, cell-free homogeneous | CAAX prenyl protease 2 (Saccharomyces cerevisiae (strain ATCC 204508 / S288c)), Q03530 | AID 2563, 2010 | calls only | actives 0.27% (n = 290,000) | yeast membranes, quenched prenylated peptide cleavage fluorescence;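 active means fall in fluorescence gain of 50% or more versus controls, with final raw signal at or below 3038400; inconclusive means same 50% fall but final raw signal above 3038400; inactive means fall in fluorescence gain under 50%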;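 further: plate controls were neutral control wells for no effect and wells lacking membranes for full effect; tested at 10 µM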
Target sequence (Q03530 whole entry, looked up): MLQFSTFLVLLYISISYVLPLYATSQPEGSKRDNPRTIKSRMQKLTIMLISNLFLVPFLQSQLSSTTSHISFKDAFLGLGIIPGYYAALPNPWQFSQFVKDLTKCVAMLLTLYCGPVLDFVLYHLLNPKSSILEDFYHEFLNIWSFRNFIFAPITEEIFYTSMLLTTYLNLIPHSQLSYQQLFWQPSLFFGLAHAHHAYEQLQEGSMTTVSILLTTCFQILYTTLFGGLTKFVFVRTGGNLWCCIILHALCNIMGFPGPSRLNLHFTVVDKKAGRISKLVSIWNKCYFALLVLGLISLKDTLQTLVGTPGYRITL
PABP FP inh = PABP poly(A) RNA binding inhibitors, primary screen, biochemical, fluorescence polarization, uHTS; Polyadenylate-binding protein 1 (Homo sapiens), P11940; inhibition, % at 35 µM; actives 1% (n = 290,000); AID 2014, 2009;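 active means 50% or more with normal probe brightness, or confirmed in later tests; inconclusive means above 50% with abnormal brightness, or retests that disagree; inactive means below 50% or failed in later tests; about a fifth of its hits are not listed in these tables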;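 further: calls also rest on retests at 20 µM and on dose response follow-up; controls were probe without protein and protein plus probe with vehicle; some compounds called inactive have numbers as strong as hits; many hits fall short of the cut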
MT1-MMP act inh = blockers of MT1-MMP proenzyme processing, primary screen, HT1080 RFP-PRO-GFP cells, GFP/RFP fluorescence; Matrix metalloproteinase-14 (Homo sapiens), P50281; GFP/RFP ratio fluorescence, overnight; percent of plate control window, DMSO zero; GFP/RFP ratio change, % at 20 µM; actives 0.061% (n = 360,000); AID 651647, 2012;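 active means GFP/RFP ratio change of at least 30% with cell ATP level not reduced by more than half and red fluorescence within 50% of control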; further: strong numbers were not always called active
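Test system: HT1080 RFP-PRO-GFP cells; Benchmarks: DMSO and RFP-L50D-GFP cell wells; Timing: cells overnight before dosing, compound overnight, 37 °C, 5% CO2; Compound: one 20 µM compound dose with 1% DMSO; Read-out: GFP/RFP fluorescence ratio.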
UUG fidelity = modulators of yeast start codon fidelity, primary screen, whole organism, S. cerevisiae, single point, plate reader; actives 0.13% (n = 350,000); activity score, % at 18.7 µM; S. cerevisiae UUG-firefly luciferase reporter, luminescence/redox ratio;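 active means replicate mean at a twofold rise or more, about +100% in these data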;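 further: firefly luciferase made from a UUG start codon reports start codon fidelity; reporter light over untreated wells divided by growth signal over untreated wells; some hits fall short of that in this replicate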
eIF4H inh = human eIF4H binding inhibitors, primary screen, translation initiation inhibitor project, biochemical, uHTS, fluorescence polarization; eIF4H fluorescence polarization binding assay; Eukaryotic translation initiation factor 4H (Homo sapiens), Q15056; actives 0.94% (n = 290,000); AID 2012, 2009; inhibition, % at 35 µM;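 active means 50% or more with normal probe brightness, or confirmed in later tests; inconclusive means above 50% with abnormal brightness, or retests that disagree; inactive means below 50% or failed in later tests; about a fifth of its hits are not listed in these tables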;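 further: calls also rest on retests at 20 µM and on dose response follow-up; 0% = protein and probe with vehicle and 100% = probe without protein; strong numbers were not always called active; many hits fall short of the cut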
eIF4H inh retest = second read-out of eIF4H inh, no call of its own (marks repeat the call); inhibition, %; compound at 20 µM; confirmation average;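 mean of two retest wells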
PABP FP inh retest = second read-out of PABP FP inh, no call of its own (marks repeat the call); inhibition, %; compound at 20 µM; confirmation repeats;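 mean of two retest wells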
MT1-MMP act inh RFP = further read-out of MT1-MMP act inh, marked with its call; RFP signal change, %; measured here: RFP expression control read;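 0 = vehicle wells; hits needed this value within 50% of zero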
* hit, by the source's call; i = inactive; u = inconclusive; x = no result given; & = joins results of further samples. An excerpt. The share of hits here may be higher or lower than overall.

SMILES	CSC inhib	HIV Env fusion	Rce1 inhib	PABP FP inh	MT1-MMP act inh	MT1-MMP act inh RFP	UUG fidelity	eIF4H inh	others
CC(=O)c1cccc(CN2CCC(n3nccc3NC(=O)c3ccc4c(c3)OCO4)CC2)c1	-4	-12	i	11	-2	2	0	1
COc1ccc(S(=O)(=O)N2CCCCCC2)cc1C(=O)N1CCN(C(C)=O)CC1	x	-4	x	x	0	2	-11	x
Cn1c(CCCCCN)nc2ccccc21	7	-32	i	-9	-5	3	-9	-4
COc1cc(Nc2ccccc2Cl)c([N+](=O)[O-])nc1[N+](=O)[O-]	2	-71	i	4	13	-1	-6	-2
c1ccc(CN2CCC3CC2c2cc(N4CCCCC4)ccc23)cc1 (centres undefined)	x	-3	x	x	2	1	-7	x
CCCC#Cc1cnc2c(c1)C(=O)N([C@H](C)CO)C[C@H](C)[C@@H](CN(C)C(=O)CCN1CCCCC1)O2	x	28	x	x	5	5	166*	x
CN1CCN(S(=O)(=O)c2ccc3[nH]c(=O)oc3c2)CC1	-7	6	i	20	2	5	x	-5
Cc1nc2c(sc(=S)n2Cc2ccco2)c(=O)n1CC(=O)Nc1ccccc1F	-9	-8	i	-5	4	-3	3	-16
Cc1ccc2[nH]cc(C(=O)CN3CCN(C)CC3)c2c1	x	x	i	12	-2	2	-4	-4
C[C@H](CO)N1C[C@H](C)[C@@H](CN(C)C(=O)Nc2ccc(N3CCN(C)CC3)cc2)OCc2cnnn2CCCC1=O	x	20	x	x	3	7	-3&-8	x
COc1ccc(Nc2nc(N)nc(CSc3nncn3C)n2)cc1	-14	-56	i	5	1	1	-26	5
Cc1ccc(C(=O)CSc2nc(C)cc(C)c2C(N)=O)cc1	6	x	x	2	6	1	-11	6
O=C(CCn1nc(-c2ccc(Cl)cc2)ccc1=O)N1CCOCC1	-11	x	i	10	-4	-4	-3	2
COc1ccc(N(C(C)=O)S(=O)(=O)c2cccc3cccnc23)cc1	-1	5	i	-11	-1	5	x	-8
CCOC(=O)C1CCN(C(=O)CCC2CCCC2)CC1	-13	-8	i	-3	0	0	-6	4
C/C=C\C(=O)Nc1cccc(C2=NOC3(C2)C[C@@H](C(N)=O)N(C(=O)CC(c2ccccc2)c2ccccc2)C3)c1 (some centres undefined)	-3	-8	i	9	-1	-6	3	5
Cn1c2ccccc2c2c(C(=O)NCCCN3CCCC3=O)cn(C3CCCCC3)c(=O)c21	10	-13	i	7	-4	-3	4	5
CCN(CC)c1nc(Nc2ccc([N+](=O)[O-])cc2)nc(N(CC)CC)n1	69	-5	i	-3	-10	-10	-11	-2
O=C(COc1ccc(Cl)cc1)Nc1nnc(S(=O)(=O)N2CCCCCC2)s1	17	-11	i	-3	6	-14	-15	-9
COC(=O)c1ccccc1C(=O)N1CC(O)CO1 (centres undefined)	x	4	i	-4	0	-9	-9	-7
CC1CC(C)CN(C(=O)C(C)N(C)CC(=O)Nc2ccccc2Cl)C1 (centres undefined)	x	8	i	7	1	-1	x	7
O=C(N/C(=C\c1cccs1)C(=O)N1CCOCC1)c1ccco1	-8	-1	i	-10	-2	1	x	-9
Cc1cc2occ(CC(=O)NCc3cccs3)c2cc1C(C)C	-12	14	i	-3	-2	-1	x	3
CSc1sc2ccccc2[n+]1CCCS(=O)(=O)[O-]	-20	x	i	8	2	3	2	0
O=C(O)c1cc(S(=O)(=O)NCC2COc3ccccc3O2)ccc1Cl (centres undefined)	-13	3	x	x	3	2	-9	x

Later entries:
SMILES	CSC inhib	HIV Env fusion	Rce1 inhib	PABP FP inh	MT1-MMP act inh	MT1-MMP act inh RFP	UUG fidelity	eIF4H inh	others
CC(C)(C)n1nc2c(c1NC(=O)COc1ccc(Cl)cc1)CSC2	2	x	i	5	-3	-9	-8	0
Cn1ccnc1SCC(=O)c1ccc(C#N)cc1	-6	0	i	11	-1	2	-5	-6
CCn1nc(CC(=O)O)c2ccccc2c1=O	3	8	i	8	3	1	x	-4
COCCN1Cc2cccc(C(=O)Nc3ccc(S(=O)(=O)N4CCOCC4)cc3)c2C1=O	1	-1	i	u	2	1	x	-1
Cc1cccc(OCC(=O)Nc2cc(C)c(C)cc2O)c1	-10	x	i	-7	7	2	-2	-6
O=C(COC(=O)CNC(=O)c1cccc(OC(F)F)c1)NCc1ccc2c(c1)OCO2	-8	x	x	x	2	2	1	x
Cc1ccc(SCc2c(C(=O)N/N=C/c3ccncc3)nnn2-c2nonc2N)cc1	-2	-6	i	-2	4	-6	-9	-10
CSc1nc(-c2ccccc2)nc(C(Cl)Cl)n1	-11	-35	i	-6	-38	-39	-7	1
Fc1ccccc1CSCc1nc2ccccc2[nH]1	-1	-200	i	1	5	-1	-16	-1
CC(C)c1ccc(C(=O)CSc2n[nH]c(-c3ccncc3)n2)cc1	1	x	i	-6	2	-3	-12	-4
Cc1cc(C(=O)N/N=C/c2ccccc2Br)no1	-10	x	i	-3	2	1	-15	-3
CN(CC(=O)Nc1c(Cl)cccc1Cl)C(=O)CCC1CCCC1	-10	2	i	4	-1	2	-1	7
Cc1noc(NS(=O)(=O)c2ccc(NC(=O)c3oc4ccc(F)cc4c3C)cc2)c1C	x	8	i	8	-1	-6	-5	-8
COc1ccc(Cl)cc1C(=O)NNC(=O)c1cccnc1	-8	x	i	8	3	2	x	-4
Cc1ccc(C(=O)N2CCN(C)CC2)cc1S(=O)(=O)N1CCCCCC1	-1	x	i	-23	-2	4	-13	-8
COc1cc(C(=O)N2CCN(c3ccc([N+](=O)[O-])cc3)CC2)ccc1OCc1c(C)noc1C	-1	x	i	-1	-3	-10	31	-6
CC12CC3CC(C)(C1)CC(C(=O)N1CCCC1)(C3)C2	x	29	i	0	6	6	3	-2
CN(C)C(CNc1ncccn1)c1ccccc1 (centres undefined)	9	-16	i	6	1	2	-6	-2
Cc1cc(O)ccc1NC(=O)Cc1cccc2ccccc12	x	8	x	x	2	2	-9	x
O=C(CN1CCOCC1)N/N=C/c1ccc(C(=O)O)cc1	-10	2	i	4	1	3	x	-3
COc1ccccc1/C=N/NC(=O)CC(=O)NCc1cccnc1	-8	-19	i	13	3	4	x	3
COc1cccc(N2CCN(C(=O)c3oc4ccccc4c3NC(=O)Cc3ccc(OC)c(OC)c3)CC2)c1	-2	17	i	4	-3	-6	11	-1
Cc1ccc(N(C)S(=O)(=O)c2cccc(C(=O)Nc3nnc(C4CC4)s3)c2)cc1	1	15	i	-9	3	-9	x	1
O=C(Nc1c(Cl)cc(Cl)cc1C(=O)NCCN1CCOCC1)c1cccc([N+](=O)[O-])c1	-16	26	i	20	3	9	x	-7
C[C@@H]1C(=O)OC[C@H]1NC(=O)OCc1ccccc1	-20	8	i	x	0	5	-23	x

Following part.
SMILES	CSC inhib	HIV Env fusion	Rce1 inhib	PABP FP inh	MT1-MMP act inh	MT1-MMP act inh RFP	UUG fidelity	eIF4H inh	others
Cc1nc(C(F)(F)F)ccc1C(=O)N1CCC1(C)C(=O)NS(=O)(=O)c1cccc(Cl)c1 (centres undefined)	x	-17	x	x	1	5	-13	x
O=C(O)/C=C/C(=O)Nc1ccc(Oc2ccc(NC(=O)/C=C/C(=O)O)cc2)cc1	-10	x	i	-2	x	x	x	-3
CCOC(=O)c1c(-c2ccc(C)o2)csc1NC(=O)CN1CCCCC1	65	26	i	2	-7	-6	-37	-11
CN=C(NC1CCCCC1)c1ccc([N+](=O)[O-])cc1	-18	-6	i	-3	-1	2	-7	2
O=C(Cc1c(F)cccc1Cl)c1ccc(O)cc1O	-1	x	i	58*	-7	-2	-15	63	eIF4H inh retest=29;PABP FP inh retest=50*
CCOCCCN(Cc1cc2cc(C)cc(C)c2[nH]c1=O)C(=O)N(CC)CC	-1	-2	i	2	-4	-5	2	-13
COc1ccc(/C=C/C(=O)Nc2cc(S(=O)(=O)N3CCOCC3)ccc2N2CCCC2)cc1OC	-4	3	i	2	-4	-1	x	-3
CN(C(=O)c1ccc(=O)n(Cc2ccc(Cl)cc2)c1)c1ccccc1	-10	4	i	-4	-7	-2	13	-9
COc1ccccc1C(=O)NCC(=O)NCCC(c1ccccc1)c1ccccc1	5	17	x	x	1	-1	4	x
CN(Cc1ccon1)C(=O)CC1C(=O)NCCN1Cc1cccc(Oc2ccccc2)c1 (centres undefined)	3	24	i	2	0	4	22	0
CCOc1ccc(OCCC(=O)N2CCN(S(=O)(=O)c3ccc(F)cc3)CC2)cc1	9	-8	i	x	-2	-2	-10	x
Cn1nc(C(=O)OCC(=O)Nc2ccc(Cl)cc2Cl)c2ccccc2c1=O	-14	x	x	x	0	0	1	x
COC(=O)c1cccc(NC(=O)CC2C(=O)NCCN2C(=O)c2ccc(F)cc2F)c1 (centres undefined)	-2	-4	i	6	1	5	12	-1
CC(=O)Nc1ccc(S(=O)(=O)NCC(=O)OCC(=O)NCc2ccc3c(c2)OCO3)cc1	-15	22	x	x	-1	2	x	x
CCOC(=O)N1CCN(c2c(NCCN(C)Cc3ccccc3)c(=O)c2=O)CC1	8	-8	x	5	1	5	-6	1
COc1cccc(/C=N/NC(N)=S)c1OCc1cccc(Cl)c1	28	-60	i	17	-5	-8	-22	2
CCn1cc(C(=O)OCC(=O)Nc2cccc(Cl)c2Cl)c(=O)c2ccc(C)nc21	x	25	i	15	1	0	0	-2
Cc1cc(N2CCC(C)CC2)nc2ccc(N3C(=O)CCC3=O)cc12	-8	x	i	1	6	9	-16	14
O=C(NCc1ccco1)c1nnc(Cc2ccc(Cl)cc2)o1	9	-2	i	4	3	0	-7	-11
CCOc1ccc(NC(=O)c2ccc(NC(=S)NC3CCCCC3)cc2)cc1	15	9	i	-10	5	-1	-14	10
COc1ccc(N2CCN(C(=O)CS(=O)Cc3nc(-c4ccc(OC)c(OC)c4)oc3C)CC2)cc1 (centres undefined)	-2	8	i	5	0	-3	-4	-4
O=C(O)c1cccc(-c2ccccc2)c1O	x	2	x	x	1	3	3	x
CCNC(=S)N/N=C/c1ccccc1[N+](=O)[O-]	-8	-5	i	-5	1	-3	x	-3
CC(=O)Nc1cccc(C(=O)NC2CCCc3c2cnn3-c2ccccc2F)c1 (centres undefined)	-25	-2	i	3	1	0	-22	-10
COc1ccccc1OCC(=O)Nc1ccccc1C(=O)NC1CC1	-2	7	i	x	4	0	-3	x
O=C(NCCc1ccccn1)C(F)(F)C(F)(F)C(F)(F)C(F)(F)C(F)(F)C(F)(F)C(F)(F)C(F)F	-11	x	i	0	7	5	16	-12
Cc1cc(NS(=O)(=O)c2ccc(Br)s2)no1	x	-36	i	x	-9	0	-2	x
O=C(Nc1cccc(C(=O)N2CCCC2)c1)C1CCCC1	x	-10	x	x	2	5	-6	x
Cc1cnc(C)c(N2CCN(Cc3nc(-c4ccccc4)no3)CC2)n1	-27	-3	i	-4	1	-5	-13	3
CCOc1ccc(C2NCCc3cc(OC)c(OC)cc32)cc1OC (centres undefined)	-2	-16	i	12	-28	-8	-33	-4
